Source: PubChem BioAssay
RanGTP-Impb inh – disruptors of Ran-importin-beta complex formation – biochemical, FRET, CFP-Ran, YFP-importin-beta, homogeneous, primary screen; cell-free CFP-Ran/YFP-importin-beta FRET ratio; inhibition, % (no concentration beside the values); 300,000 tested, 1.1% active; AID 2216;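 active = most replicates above 15%; inconclusive = exactly half above 15%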;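 note: 0% = DMSO wells and 100% = Ran loaded with GDP instead of GTP; wells of about 40 µL received 100 nL stock; the first replicate is given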
Calb FLC – affects C. albicans growth with fluconazole. C. albicans CaCi-2 (fluconazole-resistant clinical isolate) + fluconazole, Alamar Blue growth, 48 h. growth inhibition, % (concentration not given with the values). 300,000 tested, 0.57% active;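 active = most replicates above 75%; inconclusive = exactly half above 75%; inactive = most below 75%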;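 note: all wells also contain fluconazole at 8 µg/ml as a sub-toxic cotreatment; 0% = median of DMSO wells and 100% = median of geldanamycin control wells; wells of about 8 µL received 7.5 nL stock; the first replicate is given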
Beta cell apopt – blocks beta cell apoptosis; 300,000 tested, 0.8% active; protection from apoptosis, % (concentration not given with the values); INS-1E cytokine-induced death, ATP luminescence, 48 h; percent of positive-control rescue, neutral wells zero; AID 435005;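 active = all replicates at 75% or more, or half of them and the mean; inconclusive = half reach 75% but not the mean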;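 note: 0% = cytokine-treated negative control wells and 100% = positive control rescue; higher means more ATP so stronger rescue from cytokine killing; wells of about 40 µL received 100 nL stock; the first replicate is given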
Vif A3G – HIV-1 Vif–A3G interaction blockers – biochemical, TR-FRET, GST-Vif 1-94, biotin-A3G peptide, dose response retest, primary screen (AID 1117319). TR-FRET GST-Vif / biotin-A3G peptide binding; higher % means a stronger effect; test concentration not given here; strong numbers were not always called active. inhibition, %, or IC50 in µM where a hit was titrated. 260,000 tested, 0.57% active;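 active = above the screen mean plus three standard deviations and confirmed in dose response; inconclusive = results disagree or hit not tested in dose response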;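 note: Vif residues 1-94 fused to GST binding biotinylated APOBEC3G peptide 110-148; 0% = full assay without inhibitor and 100% = GST in place of GST-Vif; retest series ran down from 100 µM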
T cruzi inh – T. cruzi replication inhibition. T. cruzi beta-gal in NIH3T3, luminescence, 90 h. inhibition, % (no concentration beside the values). 300,000 tested, 1.4% active. AID 1885;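 active = mean inhibition across valid replicates above about 55%, limit read from the data; inconclusive = mean below that limit but half or more replicates reach it; inactive = mean below it, under half of replicates reach it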;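 note: signal also drops with host cell toxicity which is not excluded here; 0% = plate median of DMSO wells and 100% = zero luminescence signal; higher percent means less beta-gal luminescence so fewer parasites; stock transfer was 50 nL into about 50 µL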
Bfl-1 A1 inh – inhibitors of the anti-apoptotic protein A1, read as caspase activation; MEF A1-2A-BIM cells, Caspase-Glo 3/7 luminescence, 3 h; percent of clofoctol response, vehicle zero; 330,000 tested, 0.066% active; caspase activation, % (test concentration not listed);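 active = over half of replicate activation scores above 10%, or exactly half above 10 with the replicate mean above 10; inconclusive = replicate mean below 10 yet half the replicates above 10; inactive = over half of replicates below 10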;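 note: wells of about 30 µL received 50 nL stock; many hits fall short of the cut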
LANA-H2B inh – blocks KSHV LANA binding to histone H2A/H2B; Q9QR71; cell-free LANA-H2A/H2B peptide, fluorescence polarization; inhibition, % (test concentration not listed); 320,000 tested, 0.6% active; AID 2629; in the data active = inhibition mostly above about 10%, no sharp cut-off; inactive = mostly below about 6.7%;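 note: stock transfer was 7.5 nL into about 10 µL; 0% = median of vehicle wells and 100% = median of positive control wells; one replicate is shown; the record names a cut of 25% in any replicate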
Target sequence (Q9QR71 whole entry, looked up): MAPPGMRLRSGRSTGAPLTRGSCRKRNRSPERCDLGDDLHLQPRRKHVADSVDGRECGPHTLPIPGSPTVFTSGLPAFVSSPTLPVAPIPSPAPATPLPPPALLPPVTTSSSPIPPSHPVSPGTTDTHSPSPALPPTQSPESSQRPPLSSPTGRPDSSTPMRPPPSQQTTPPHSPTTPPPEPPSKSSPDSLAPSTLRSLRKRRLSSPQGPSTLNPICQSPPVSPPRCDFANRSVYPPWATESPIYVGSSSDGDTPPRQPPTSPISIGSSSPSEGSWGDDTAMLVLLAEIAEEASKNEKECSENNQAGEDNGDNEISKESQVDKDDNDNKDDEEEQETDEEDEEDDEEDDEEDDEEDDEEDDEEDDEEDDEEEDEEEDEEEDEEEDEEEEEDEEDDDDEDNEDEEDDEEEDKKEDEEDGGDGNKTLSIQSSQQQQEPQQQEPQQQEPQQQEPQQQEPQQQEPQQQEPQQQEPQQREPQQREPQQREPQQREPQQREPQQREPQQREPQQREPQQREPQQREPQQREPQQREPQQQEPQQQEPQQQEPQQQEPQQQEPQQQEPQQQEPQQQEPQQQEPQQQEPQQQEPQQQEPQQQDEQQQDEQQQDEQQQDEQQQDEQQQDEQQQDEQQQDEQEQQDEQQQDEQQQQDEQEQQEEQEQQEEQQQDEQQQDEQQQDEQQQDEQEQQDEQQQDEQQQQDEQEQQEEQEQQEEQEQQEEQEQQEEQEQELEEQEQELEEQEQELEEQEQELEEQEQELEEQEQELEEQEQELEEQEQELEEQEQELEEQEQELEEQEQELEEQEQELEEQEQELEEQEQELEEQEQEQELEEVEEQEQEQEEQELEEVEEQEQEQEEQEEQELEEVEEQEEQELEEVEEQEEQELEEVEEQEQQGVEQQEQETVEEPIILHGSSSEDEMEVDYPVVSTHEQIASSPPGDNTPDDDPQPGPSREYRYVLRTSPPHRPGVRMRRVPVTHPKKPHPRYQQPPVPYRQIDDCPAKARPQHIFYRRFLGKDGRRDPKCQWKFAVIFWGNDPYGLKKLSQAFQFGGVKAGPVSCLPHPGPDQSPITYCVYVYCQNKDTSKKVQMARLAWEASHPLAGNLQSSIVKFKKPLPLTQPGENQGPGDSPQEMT
AF4-AF9 inh – MLL-AF4/AF9 protein interaction inhibition | P42568 | AID 651704 | 350,000 tested, 0.47% active | inhibition, % at 10 µM | AlphaScreen, biotin-AF4 peptide binding to FLAG-AF9;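 active = every replicate reaching a set inhibition limit, whatever the replicate mean, cut at about 25% in these data; inconclusive = mean inhibition reaches that limit but some replicates miss it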;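 note: 0% = plate neutral control median and 100% = total signal loss; the record names both 10 and 1 µM as test concentration; the first replicate is given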
Numbers without * were called inactive; ? = inconclusive; . = not tested or not shown; & = joins results of further samples.

SMILES	RanGTP-Impb inh	Calb FLC	Beta cell apopt	Vif A3G	T cruzi inh	Bfl-1 A1 inh	LANA-H2B inh	AF4-AF9 inh
Cc1cc(C)cc(OCC(=O)NC2=NCCS2)c1	1.8	-2	-10	-4%	-8	-0.2	-0.1	.
CCN(CC)c1ccc(NC(=O)CCc2nnc3ccc(N4CCCCC4)nn23)c(C)c1	6.1	0	.	8%	33	.	.	5.7
CCCCc1c(C)nc(N2CCCC2)[nH]c1=O	3.6	-17	-2	13%	-6	-0.4	-4.7	0.5
O=C(CSc1nnc(-c2ccco2)o1)NCCc1ccccc1	.	.	1	-8%	.	0.2	6.3	0.6
S=c1[nH]nc(-c2cccnc2)n1Cc1ccccc1	-0.3	-1	4	5%	-3	0.6	-0.4	.
Cc1onc(-c2ccccc2)c1C(=O)N/N=C/c1ccc([N+](=O)[O-])c(O)c1	-1.8	9	-8	-4%	-8	3.0	-0.8	-0.2
N#CCSc1nnc(Nc2ccccc2)s1	3.6	16	1	-2%	13	-0.3	0.0	.
Cc1ccc(C(C(=O)NC2CCCC2)N(C(=O)c2csnn2)c2cccc(F)c2)o1 (stereo not drawn)	-2.6	2	-1	.	-9	1.1	5.2	-1.9
CC(C)C/C(O)=C/c1nc2cc(Cl)ccc2oc1=O	-0.4	6	1	8%	0	0.2	-3.0	.
COc1cccc(N=CC2=C(O)CCCC2=O)c1	4.5	-5	-7	3%	-1	1.0	2.6	-2.6
O=C(Nc1ccncc1)c1ccccc1F	-0.6	-1	1	-6%	4	-0.3	1.5	.
c1csc(-c2nnc(COc3ncnc4sccc34)o2)c1	-0.3	6	-2	-3%	5	0.1	14	-6.9
CSc1cccc(NC(=O)c2sc3nc4n(c(=O)c3c2C)CCC4)c1	3.5	17	3	-23%	5	-5.4	-4.9	-1.2
COc1ccc(NC(=O)/C=C/C(=O)O)c(OC)c1	0.0	0	.	3%	8	0.4	-0.7	.
Cc1cc(Br)ccc1NC(=O)CN(C)C(=O)C1CCN(C(=O)c2ccc(F)cc2)CC1	11	-9	-10	1%	-1	0.1	1.6	-21
C=CCNC(=O)C1CC(=O)N(c2ccc(OCC(=O)Nc3ccc(C)cc3)cc2)C1 (stereo not drawn)	0.5	-1	-9	-4%	4	0.9	-3.0	.
O=C(CSCc1ccc(F)cc1)Nc1nc2c(s1)CCCC2	?	-7	-3	0%	2	1.2	2.1	.
CCSc1ccccc1C(=O)N1CCCC1	?	-4	-3	2%	-8	-0.1	-3.7	.
CC(NC(=O)CN1CCN(c2cccc(Cl)c2)CC1)c1ccccc1 (stereo not drawn)	4.8	2	3	.	40	0.1	0.6	-15
CCOC(=O)N1CCN(C(=O)c2c(Cl)cnn2C)CC1	2.0	-4	0	.	-6	1.4	1.3	-7.4
CCc1cccc(CC)c1NC(=O)COC(=O)CCc1cc(OC)c(OC)c(OC)c1	2.3	-6	-6	2%	-7	0.6	.	.
CC(=O)CC(=O)Nc1nc(C)cc(C)n1	9.6	-3	.	2%	-22	-0.1	2.5	-2.6
CC(C)(C)C(=O)O/N=C(\N)COc1cccc(Cl)c1	-1.0	-5	-2	-7%	2	0.4	5.8	-1.4
Cc1cc(NC(=O)CCCC(=O)OCC(F)(F)C(F)F)cc(C)c1C(=O)O	4.2	-2	-3	22%	2	0.1	-2.4	.
Cc1cc(C(=O)O[C@H]2[C@H](C)NS(=O)(=O)[C@H]3C[C@@H]4C=C[C@]23O4)cc([N+](=O)[O-])c1	.	.	-2	.	.	-0.2	-0.4	0.7
Cc1ccc(OCc2ccc(C(=O)Nc3cc(C)on3)o2)c([N+](=O)[O-])c1	1.3	8	2	1%	7	0.5	2.0	-2.6
COc1ccc(OC)c(NC(=O)N[C@@H](Cc2ccccc2)C(=O)O)c1	0.6	2	1	0%	4	0.4	-0.6	.
CN1CN(C)c2ccc([N+](=O)[O-])c3cccc1c23	6.4	-6	8	-5%	22	-2.1	-2.2	1.0
Cc1ccc([N+](=O)[O-])cc1NC(=O)CSc1nnc(C)n1CC1CCCO1 (stereo not drawn)	5.9	-9	5	.	4	0.4	1.3	1.2
Cn1c(=O)c2c(nc(OCc3cccnc3)n2Cc2ccccc2)n(C)c1=O	0.3	-6	5	-2%	29	1.2	-2.3	.
Oc1ccccc1CNCCCNCc1ccccc1O	1.9	-19	4	?	23	0.2	-2.6	.
Cc1onc(-c2ccccc2)c1C(=O)N1CCN(S(=O)(=O)c2ccccc2C(F)(F)F)CC1	1.3	4	-3	-5%	4	0.0	6.1	-0.3
CCC1=NN2C(=N)/C(=C\c3cccn3-c3ccc(C)cc3C)C(=O)N=C2S1	-3.7	?	4	.	-4	0.5	-0.8	2.5
Cc1cc(C)n(NC(=S)NC2CCCC2)c(=O)c1C#N	3.6	-2	2	17%	-19	0.1	1.8	-1.7
Cc1cccc(Nc2nc(N)nc(CN3CCN(c4ccccc4)CC3)n2)c1	-1.1	52	-3	10%	-4	1.1	2.7	.
O=C(Oc1ccc2c(c1)O/C(=C\c1ccncc1)C2=O)c1cccs1	-135	2	1	6%	0	0.7	2.7	0.8
Cn1nccc1C(=O)Nc1ccc(OC(=O)c2ccnn2C)cc1	?	-5	5	2%	-2	-3.0	3.5	.
Cc1cccc(N2CCN(C(=O)CCn3c(=S)[nH]c4cc5c(cc4c3=O)OCO5)CC2C)c1 (stereo not drawn)	2.1	4	2	-17%&-5%	26	.	-4.1	.
Cn1cccc1/C=N/N1CCN(Cc2ccccc2Cl)CC1	8.5	3	-16	26%	10	0.0	1.4	4.8
O=C(CCNC(=O)c1ccc(Br)cc1)Nc1ccccc1N1CCOCC1	3.6	18	.	5%	-1	-0.8	0.2	6.0
O=C(CCN1C(=O)/C(=C\c2ccco2)SC1=S)Nc1ccc(C(=O)O)c(O)c1	3.1	7	1	.	-10	-2.4	2.4	8.8
CN1CCN(C(=O)/C(=C/c2cccc([N+](=O)[O-])c2)NC(=O)c2ccccc2)CC1	-4.9	-1	-1	.	-13	0.2	0.2	1.8
C=CCNc1ncnc2c1cnn2-c1ccc(Cl)cc1	-1.4	2	.	-2%	-3	-5.8	-3.7	1.7
CCOC(=O)C(NC(C)=O)C(OC(C)=O)c1cccc([N+](=O)[O-])c1 (stereo not drawn)	1.5	1	2	-5%	-21	0.7	-2.3	.
Cc1cnc(C(=O)Nc2ccc(F)c(F)c2)cn1	-2.2	4	-1	-6%	-11	-11	0.4	.
CC1CC(C)(C)NC(C)c2ccccc21 (stereo not drawn)	?	-2	-4	2%	-2	1.1	-0.2	.
COC(=O)C1(C)NC(c2ccc(F)cc2)C2C(=O)N(c3ccccc3)C(=O)C21 (stereo not drawn)	1.7	-2	-7	.	-18	-1.5	-1.6	-3.3
CC(=O)c1ccccc1OCC(O)CNC1CCCC1 (stereo not drawn)	6.8	-2	.	-13%	-11	-0.2	-11	1.5
COC(=O)c1cccc(NC(=O)C2C3CCC(C3)C2C(=O)O)c1 (stereo not drawn)	-1.0	7	-9	6%	-6	-0.3	-2.1	.
Cc1nn(C(C)(C)C)c(NC(=O)c2ccc(Cl)cc2)c1Br	0.0	-5	-1	-4%	-35	0.6	-1.1	-2.1
O=C(CSc1ccc(Cl)cc1)Nc1ccc(-c2nc3ccccc3[nH]2)cc1	0.0	-13	10	21%	5	1.2	-3.7	.
COc1ccc(C)cc1NC(=O)CN1CCCN(S(=O)(=O)c2ccc(Br)cc2)CC1	?	14	0	.	21	-0.1	-13	-0.2
COc1cccc(S(=O)(=O)Nc2ccc(C(=O)Nc3ccncc3)cc2)c1	-0.1	4	2	.	-6	0.3	-3.2	.
COc1ccc(CNC(=O)C2CCCN2S(=O)(=O)c2ccccc2)cc1 (stereo not drawn)	1.4	-6	-5	10%	-5	0.3	0.0	.
Cc1cc(C)cc(C(=O)Nc2ccc(NC(=O)Cc3ccccc3)cc2)c1	?	-3	26	5%	-5	-0.7	-0.7	-0.8
CCOC(=O)c1c(C(=O)OCC)c(C)n(N2C(=O)CSC2=S)c1C	4.8	-1	-7	15%	-9	-0.1	8.6	.
O=C(Nc1cccc(C2=NCCN2)c1)Nc1cccc(C2=NCCN2)c1	.	.	-6	.	.	-0.2	5.9	?
O=C(Nc1cccc(C(F)(F)F)c1)c1cccc(NS(=O)(=O)c2ccc(Br)c(C(=O)O)c2)c1	-2.0	-14	-1	3%	-6	0.0	0.2	0.1
Cc1nn(CC(C)C)c(=S)[nH]c1=O	1.6	-3	-1	-3%	-2	-0.4	-6.7	.
O=C(CNC(=O)Cc1ccccc1)NCC(=O)OCc1ccccc1	2.0	-6	2	-8%	?	0.7	0.6	.
(further entries)
SMILES	RanGTP-Impb inh	Calb FLC	Beta cell apopt	Vif A3G	T cruzi inh	Bfl-1 A1 inh	LANA-H2B inh	AF4-AF9 inh
CCOC(=O)c1c(NC(=O)CN2C(=O)NC3(CCCCC3C)C2=O)sc(C(=O)N(C)C)c1C (stereo not drawn)	-2.9	.	7	-5%	4	-0.5	0.1	0.1
COc1ccccc1Oc1ncnc2c1cnn2-c1ccccc1	-0.9	-2	1	3%	-3	-0.6	-3.3	-9.2
CC(C)c1nnc(NC(=O)Cc2cccs2)s1	2.1	7	1	10%	-9	0.1	1.9	-3.7
CCOC(=O)C1(Cc2ccccc2)CCN(Cc2cnn(-c3ccccc3)c2)CC1	1.8	-28	4	10%	22	-0.1	6.2	6.8
CC(=O)Nc1ccc(C(=O)NN2C(=O)c3ccccc3C2=O)cc1	-0.4	-2	-7	.	9	0.2	-0.1	-3.6
Cn1c(=O)n(C)c2cc(NC(=O)c3cccc([N+](=O)[O-])c3)c(Br)cc21	2.4	-7	-3	2%	-3	0.0	-11	0.1
COCCn1c(=O)[nH]c2cc(C(=O)NCCN3CCN(c4cccc(Cl)c4)CC3)ccc2c1=O	2.4	17	7	?	3	0.2	10	.
Brc1cccc(C2Nc3cccc4cccc(c34)N2)c1	-1.1	9	3	.	-2	-0.1	4.1	-8.5
CCn1c2ccccc2c2cc(NC(=O)COC(=O)c3ccccc3O)ccc21	3.8	-4	0	27%	-8	-0.1	-1.5	2.1
CCCCCCOc1ccc(C(=O)NCCCn2ccnc2)cc1	-1.2	30	21	14%	30	-0.7	0.5	7.3
O=C(Nc1ccc(O)c(C(=O)O)c1)c1cccc(NC(=O)c2ccco2)c1	2.5	-7	12	5%	-6	-0.1	-2.5	1.5
CCOc1ccc(-n2c(-c3ccccc3)c[nH]c2=S)cc1	-0.8	-12	-5	.	11	-0.6	3.3	-5.9
Cc1cccc(C)c1OCc1n[nH]c(=S)n1N	-4.1	-22	0	-3%	26	-0.3	-0.9	-8.6
O=C(CCNC(=O)c1ccc([N+](=O)[O-])cc1)N/N=C/c1ccc(F)cc1	-0.5	34	2	3%	5	-0.5	-3.7	-0.9
Cc1ccc(C(=O)NC(=S)NNC(=O)COc2ccc([N+](=O)[O-])cc2)cc1	2.1	16	0	-1%	-4	-0.2	2.1	-0.5
COc1ccc(CNS(=O)(=O)c2c(C(=O)N3CCCCC3)c(C)n(C)c2C)cc1	3.3	11	.	-10%	-2	-1.7	3.0	0.1
